A1 inh: inhibitors of the anti-apoptotic protein A1, read as caspase activation | 330,000 tested, 0.066% active | MEF A1-2A-BIM cells, Caspase-Glo 3/7 luminescence, 3 h; percent of clofoctol response, vehicle zero | caspase activation, % (no concentration beside the values) | AID 2462;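 active = over half of replicate activation scores above 10%, or exactly half above 10 with the replicate mean above 10; inconclusive = replicate mean below 10 yet half the replicates above 10; inactive = over half of replicates below 10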;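 also: wells of about 30 µL received 50 nL stock; many hits fall short of the cut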
RanGTP-Imp inh: disruptors of Ran-importin-beta complex formation – biochemical, FRET, CFP-Ran, YFP-importin-beta, homogeneous, primary screen. cell-free CFP-Ran/YFP-importin-beta FRET ratio. inhibition, % (no concentration beside the values). 300,000 tested, 1.1% active;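 active = most replicates above 15%; inconclusive = exactly half above 15%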;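 also: 0% = DMSO wells and 100% = Ran loaded with GDP instead of GTP; wells of about 40 µL received 100 nL stock; the first replicate is given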
Beta2AR agonist: human beta-2 adrenergic receptor agonism by FAP | Am2.2-beta2AR cells, FAP receptor internalization, flow cytometry; reference of the scale not given here | response, % (concentration not given with the values) | 340,000 tested, 0.43% active;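 active = response above a set limit, near 3 SD of response in nonfluorescent compounds, cut at about 42% in these data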;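 also: stock transfer was 100 nL into about 11 µL; a reference agonist was the positive control; negative values mostly stem from fluorescent compounds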
Target sequence (P07550 whole entry, looked up): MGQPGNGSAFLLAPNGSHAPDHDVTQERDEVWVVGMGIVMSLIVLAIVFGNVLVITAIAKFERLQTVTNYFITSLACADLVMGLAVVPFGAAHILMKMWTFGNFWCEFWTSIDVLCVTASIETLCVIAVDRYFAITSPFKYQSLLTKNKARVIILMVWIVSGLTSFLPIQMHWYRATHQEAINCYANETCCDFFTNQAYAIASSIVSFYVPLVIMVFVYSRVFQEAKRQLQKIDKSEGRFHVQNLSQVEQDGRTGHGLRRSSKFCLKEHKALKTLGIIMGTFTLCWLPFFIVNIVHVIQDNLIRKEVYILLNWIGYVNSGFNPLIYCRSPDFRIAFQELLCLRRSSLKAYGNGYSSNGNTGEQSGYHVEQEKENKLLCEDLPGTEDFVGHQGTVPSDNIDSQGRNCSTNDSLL
Calb FLC: affects C. albicans growth with fluconazole; C. albicans CaCi-2 (fluconazole-resistant clinical isolate) + fluconazole, Alamar Blue growth, 48 h; growth inhibition, % (concentration not given with the values); 300,000 tested, 0.57% active; AID 1979;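 active = most replicates above 75%; inconclusive = exactly half above 75%; inactive = most below 75%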;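 also: all wells also contain fluconazole at 8 µg/ml as a sub-toxic cotreatment; 0% = median of DMSO wells and 100% = median of geldanamycin control wells; wells of about 8 µL received 7.5 nL stock; the first replicate is given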
Beta cell apopt: blocks beta cell apoptosis; INS-1E cytokine-induced death, ATP luminescence, 48 h; percent of positive-control rescue, neutral wells zero; protection from apoptosis, % (test concentration not listed); 300,000 tested, 0.8% active;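 active = all replicates at 75% or more, or half of them and the mean; inconclusive = half reach 75% but not the mean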;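 also: 0% = cytokine-treated negative control wells and 100% = positive control rescue; higher means more ATP so stronger rescue from cytokine killing; wells of about 40 µL received 100 nL stock; the first replicate is given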
LANA-H2A inh: blocks KSHV LANA binding to histone H2A/H2B; inhibition, % (test concentration not listed); Q9QR71; cell-free LANA-H2A/H2B peptide, fluorescence polarization; 320,000 tested, 0.6% active; in the data active = inhibition mostly above about 10%, no sharp cut-off; inactive = mostly below about 6.7%;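 also: stock transfer was 7.5 nL into about 10 µL; 0% = median of vehicle wells and 100% = median of positive control wells; one replicate is shown; the record names a cut of 25% in any replicate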
T cruzi inh: blocks replication of Trypanosoma cruzi; inhibition, % (no concentration beside the values); AID 1885; T. cruzi beta-gal in NIH3T3, luminescence, 90 h; 300,000 tested, 1.4% active;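 active = mean inhibition across valid replicates above about 55%, limit read from the data; inconclusive = mean below that limit but half or more replicates reach it; inactive = mean below it, under half of replicates reach it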;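 also: signal also drops with host cell toxicity which is not excluded here; 0% = plate median of DMSO wells and 100% = zero luminescence signal; higher percent means less beta-gal luminescence so fewer parasites; stock transfer was 50 nL into about 50 µL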
UCH37 DUB inh: inhibitors of human deubiquitinating enzyme UCH37; AID 588478; inhibition, % (concentration not given with the values); purified proteasome/UCH37, Ub-AMC cleavage fluorescence; 330,000 tested, 0.33% active; Q9Y5K5;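 active = mean of two replicates above 20%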;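 also: 0% = compound-free wells with enzyme and 100% = wells lacking proteasome; stock transfer was 100 nL into about 20 µL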
Target sequence (Q9Y5K5 whole entry, looked up): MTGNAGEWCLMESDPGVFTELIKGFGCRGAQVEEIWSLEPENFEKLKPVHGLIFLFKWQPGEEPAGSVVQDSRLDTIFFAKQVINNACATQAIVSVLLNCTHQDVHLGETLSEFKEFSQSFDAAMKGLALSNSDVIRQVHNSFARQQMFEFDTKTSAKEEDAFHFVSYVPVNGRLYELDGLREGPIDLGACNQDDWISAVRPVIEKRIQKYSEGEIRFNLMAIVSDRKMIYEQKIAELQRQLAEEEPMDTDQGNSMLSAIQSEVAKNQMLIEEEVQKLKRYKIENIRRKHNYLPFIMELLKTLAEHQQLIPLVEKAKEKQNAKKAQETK
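Assay system: Proteasome-bound UCH37. Buffer or medium: pH 7.4 Tris-HCl (50 mM) with ovalbumin, ATP-MgCl2, DTT. Incubation: 30 min preincubation with enzyme, 25 min cleavage at room temperature. Measured by: fluorescence, ex 355 nm, em 460 nm. Read-out basis: percent inhibition. Control set: wells without proteasome as full block, compound-free enzyme plus substrate as uninhibited.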
* marks the source's active call; other numbers are inactive results; u = inconclusive; x = not tested or not shown.

SMILES	A1 inh	RanGTP-Imp inh	Beta2AR agonist	Calb FLC	Beta cell apopt	LANA-H2A inh	T cruzi inh	UCH37 DUB inh
CC1CCC(NC(=O)CCS(=O)(=O)c2ccc3c(c2)oc(=O)n3C)CC1 (stereo unspecified)	0.5	3.1	-9	-13	-4	-3.9	-3	4.0
N#CCCN(Cc1cccnc1)C(=O)Nc1cccc(Cl)c1	-0.9	3.8	-6	5	-5	4.3	16	0.9
C/C(=N\NC(=S)Nc1ccc(F)cc1)C1CC1	-0.4	2.8	6	u	1	6.7	-9	x
COc1ccc([C@H](NC(=O)OC(C)(C)C)C(=O)OC(C)(C)C)cc1	1.7	x	0	x	2	2.6	x	0.0
CCCN1CNC(=S)N(CC2CCCO2)C1 (stereo unspecified)	-0.1	-2.4	8	-15	-4	-2.3	8	2.0
COC1(OC)C(=N/O)/C(=N\O)CCC1O (stereo unspecified)	-0.6	7.2	-2	0	-4	3.4	-38	x
O=C(Nc1ccc(N2CCCCC2)cc1)c1cc([N+](=O)[O-])cc([N+](=O)[O-])c1	-0.5	0.4	-4	-9	9	-3.1	60*	3.5
Cc1ccc(S(=O)(=O)N2CCN(C(=O)Cc3ccccc3)CC2)cc1C	-0.6	x	-5	x	-1	-1.2	x	-2.0
CC(C)(C)NC(=O)CCN1CCOCC1	0.3	3.1	3	-9	-3	4.9	3	3.3
COc1ccc(S(=O)(=O)N2CCOCC2)cc1NC(=O)COC(=O)C1COc2ccccc2O1 (stereo unspecified)	-0.3	-2.2	10	2	-7	0.4	1	3.6
Cc1nc(C)c(C(=O)C2=C(O)C(=O)N(CCN3CCOCC3)C2c2cccs2)s1 (stereo unspecified)	-0.3	-3.9	-3	2	-4	6.3	-10	8.8
Cc1ccc(NC(=O)C2CC(c3ccc(F)cc3)=NO2)cc1 (stereo unspecified)	-0.2	6.0	-8	16	-2	1.2	-2	2.6
COc1ccccc1C(=O)NCC(=O)NNC(=O)C1COc2ccccc2O1 (stereo unspecified)	-0.7	5.8	-4	8	-2	-4.8	-11	0.1
Cc1ccccc1OCCNC(=O)/C=C/c1ccccc1	0.5	-2.5	-10	10	2	-1.3	3	4.9
Cc1ccc(Nc2c(F)c(F)c(F)c(F)c2C(=O)O)c(C)c1	2.0	0.1	-1	14	-4	0.8	10	-0.7

Of the compounds above, two have a tert-butyl group:
SMILES	A1 inh	RanGTP-Imp inh	Beta2AR agonist	Calb FLC	Beta cell apopt	LANA-H2A inh	T cruzi inh	UCH37 DUB inh
COc1ccc([C@H](NC(=O)OC(C)(C)C)C(=O)OC(C)(C)C)cc1	1.7	x	0	x	2	2.6	x	0.0
CC(C)(C)NC(=O)CCN1CCOCC1	0.3	3.1	3	-9	-3	4.9	3	3.3

Other entries.
SMILES	A1 inh	RanGTP-Imp inh	Beta2AR agonist	Calb FLC	Beta cell apopt	LANA-H2A inh	T cruzi inh	UCH37 DUB inh
CC(C)c1nc(NCC2CCCO2)c(C#N)c2c1COC(C)(C)C2 (stereo unspecified)	-0.3	-0.3	-9	-3	-5	0.7	7	-90
O=C(CSc1ccccn1)Nc1cccc(S(=O)(=O)N2CCCC2)c1	-0.1	x	6	x	0	3.2	x	0.2
O=C1C=C(c2ccccc2)OC(c2ccccc2)O1 (stereo unspecified)	0.2	u	-5	1	0	1.3	-12	-1.3
O=C(CSc1nnc(CNC(=O)c2c(F)cccc2Cl)o1)Nc1ccc2c(c1)OCO2	0.8	-1.9	0	-1	-1	-1.1	-8	2.5
CCc1nn(-c2ccccc2)c(N)c1-c1ccc(OC)c(OC)c1	-0.2	-0.1	-11	1	-22	3.3	-22	0.2
CC(=O)c1c(C(C)=O)c(C)n(-c2nc(-c3cccs3)c(C)s2)c1C	-0.8	6.1	3	x	0	-0.7	-5	0.5
COc1cc2c(C(=O)N3CCN(C)CC3)c(C)n(-c3ccccc3)c2cc1Br	0.6	3.8	-2	36	-1	1.9	6	0.4
CC(C)Cc1ccc(C(C)C(=N)N)cc1 (stereo unspecified)	0.6	-1.5	-3	9	0	6.6	10	1.6
O=C(Nc1ccc(Cl)cc1C(F)(F)F)c1ccccc1	2.0	-0.8	11	5	4	-1.0	-5	-0.3
NC(=O)CC(NC(=O)Cc1ccc(Br)cc1)c1ccc(NCCN2CCCC2)c([N+](=O)[O-])c1 (stereo unspecified)	1.0	2.9	-4	-9	-4	3.3	-9	4.4
Cc1cccc(NC(=S)N(Cc2ccco2)C(C)c2cccs2)c1 (stereo unspecified)	0.1	6.0	3	2	1	-1.9	5	4.3
Cc1ccc(C(=O)OCC(=O)NCc2ccc(Cl)cc2Cl)o1	-0.7	x	-2	x	3	1.2	x	-1.7
Nc1nonc1-c1nc2ccccc2n1Cc1ccc(F)cc1	0.3	4.0	-2	u	-22	-2.0	1	-0.7
Fc1cnc(Cl)nc1N1CCN(c2ccccc2)CC1	0.3	9.0	0	3	1	1.4	-4	6.2
C=CCN1C(=NC(=O)CC)SC2CS(=O)(=O)CC21 (stereo unspecified)	0.0	0.8	3	-15	-4	-7.7	-22	5.2

Reformatted with two lines to a compound: 4 of the compounds above.
Values run as follows: A1 inh | RanGTP-Imp inh | Beta2AR agonist | Calb FLC | Beta cell apopt | LANA-H2A inh | T cruzi inh | UCH37 DUB inh
CC(C)Cc1ccc(C(C)C(=N)N)cc1 (stereo unspecified)
→ 0.6 | -1.5 | -3 | 9 | 0 | 6.6 | 10 | 1.6
Cc1cccc(NC(=S)N(Cc2ccco2)C(C)c2cccs2)c1 (stereo unspecified)
→ 0.1 | 6.0 | 3 | 2 | 1 | -1.9 | 5 | 4.3
O=C(Nc1ccc(Cl)cc1C(F)(F)F)c1ccccc1
→ 2.0 | -0.8 | 11 | 5 | 4 | -1.0 | -5 | -0.3
C=CCN1C(=NC(=O)CC)SC2CS(=O)(=O)CC21 (stereo unspecified)
→ 0.0 | 0.8 | 3 | -15 | -4 | -7.7 | -22 | 5.2

Continued:
SMILES	A1 inh	RanGTP-Imp inh	Beta2AR agonist	Calb FLC	Beta cell apopt	LANA-H2A inh	T cruzi inh	UCH37 DUB inh
Cc1ccc(Oc2ccc(NC(=O)Cn3ccsc3=N)cc2)cc1	0.6	-4.5	28	4	0	-1.7	37	x
O=C(Nc1ccc2nc(-c3ccccn3)[nH]c2c1)C1CCCCC1	-1.5	-1.1	-12	u	x	-3.0	-8	-46
COc1ccc(C(=O)NNC(=O)c2cc3cc([N+](=O)[O-])ccc3oc2=O)cc1OC	-0.5	-0.1	0	0	-10	-2.7	-14	2.7
Cc1ccccc1NC(=O)C1CCCN(c2nnc(N3CCCC3=O)s2)C1 (stereo unspecified)	-0.3	-5.8	-2	3	4	-5.9	6	1.4
Cc1c(C)c2ccc(OCC(=O)N3CCC(C(=O)O)CC3)c(C)c2oc1=O	1.0	6.0	8	0	-6	1.9	-9	-117
CCOc1ccc(CCNC(=O)COC(=O)CCC(=O)c2cccs2)cc1OCC	2.6	-2.1	8	4	-5	-1.9	-1	1.7
CN1CCN(c2ncnc3c2c(-c2ccccc2)cn3-c2ccc(F)cc2)CC1	-0.7	0.0	-5	10	1	3.9	31	4.4
COc1cc2c(cc1NC(=S)Nc1cccc(C)c1)oc1ccccc12	-0.6	u	2	-11	-6	2.2	36	-1.9
CCC(=O)NC(=S)Nc1ccc(N2CCN(C(=O)c3ccc(Cl)cc3)CC2)cc1	-0.3	-3.7	-3	21	2	-0.6	46	6.4
CCCCNC(=S)N1CCN(c2ccc(C(C)=O)cc2)CC1	-0.2	u	-13	-5	3	-0.4	-6	6.6
CCCCOc1ccc(NC(=S)Nc2cc(C)nc(SCCCC)n2)cc1	0.3	-0.1	-5	-9	14	-0.2	35	2.3
COc1ccccc1NC(=O)c1ccc(Br)o1	-2.4	5.4	13	-2	x	-9.8	-26	1.2
Cc1cc(N2CCOCC2)nc2ccc(Cl)cc12	-0.3	5.4	-1	21	-1	4.6	-19	-74
COc1ccc(/C(=C\Nc2ccc(C)c(C)c2)C(C)=O)cc1OC	0.4	-1.0	4	-15	3	-0.9	13	8.6
CCC(=O)N1CCc2cc(S(=O)(=O)N3CCN(c4cc(C)ccc4C)CC3)ccc21	-0.7	-2.9	-9	-3	-2	3.0	15	3.8
CN(C)S(=O)(=O)c1ccc(Cl)c(C(=O)OCC(=O)NC(=O)c2cccn2C)c1	0.7	-5.0	-22	5	-7	2.2	4	1.5
Cc1ccc(OCCn2nnc3ccccc32)cc1C	-5.0	2.5	1	-19	x	-2.6	-2	1.7
Cc1ccc(-c2csc(NC(=S)NC(=O)c3ccco3)n2)cc1	-0.6	0.6	-7	-14	0	0.5	7	4.8
COc1cc(/C=N/N(C)c2ccccc2)ccc1O	-3.2	-3.3	-2	-10	-3	-1.4	-10	x
COc1cccc(-c2c(NC(C)=O)n(C)c3ccccc3c2=O)c1	0.6	-2.6	-1	-5	-7	7.3	-5	-3.3
Cn1cccc1C(=O)C(=O)Nc1ccccc1C(F)(F)F	-0.2	4.1	-4	-9	2	0.8	-9	3.3
Cc1cc(C)nc(N/N=C/c2ccccc2OCc2ccc([N+](=O)[O-])cc2)n1	-0.8	-0.9	97*	2	-1	4.1	9	x
Cc1ccc(Cl)cc1Nc1nc(-c2sc(NC(=O)c3ccco3)nc2C)cs1	-0.4	1.9	0	8	-14	1.1	17	-3.9
CC1Sc2ccc(S(=O)(=O)N3CCC(C(=O)NCc4ccco4)CC3)cc2NC1=O (stereo unspecified)	-0.4	7.7	-6	3	3	0.4	-11	0.7
C/C(CC(=O)Nc1ccc2ccccc2c1)=N\NC(=O)c1cnccn1	0.3	-2.7	2	32	0	-0.3	-9	x
COc1ccccc1NC(=O)c1cn(C)c(=O)c2cc(OC)c(OC)cc12	0.7	0.2	-4	3	-3	-8.8	2	4.5
CN(Cc1cc(=O)n2ccsc2n1)Cc1nc2ccccc2c(=O)[nH]1	-0.2	1.7	2	4	1	-2.0	-19	-18
O=C(NC(=S)Nc1ccc(CN2CCOCC2)cc1)c1ccc(-c2ccc(Cl)cc2)o1	-0.2	1.3	x	-12	6	5.4	-15	4.1
COc1cc2c(cc1OC)C(COc1ccccc1OC)N(C(=O)C(C)(C)C)CC2 (stereo unspecified)	0.4	0.3	6	-3	-1	5.8	8	4.1
Cc1nc2ccccc2nc1SCC(=O)c1ccccc1	-0.1	u	-9	-6	10	7.4	2	1.5
CC(C)C[C@H]1CN=C(Nc2ccccc2)N1CC1CCC(C)CC1 (stereo partly specified)	0.1	2.5	4	-12	25	0.8	23	1.2
Cc1cccn2cc(CNS(=O)(=O)c3cccc(F)c3)nc12	-0.6	-0.1	3	11	-1	0.3	-14	2.5
CCOC(=O)c1cnc2ccc(OCC)cc2c1NCCCN1CCOCC1	-0.8	-2.4	0	5	20	3.9	38	-24
CN=C1SC(C(=O)Nc2ccccc2Cl)CC(=O)N1c1ccc(OC(F)(F)Cl)cc1 (stereo unspecified)	-0.1	-3.0	3	-16	-1	-1.9	25	3.6
CC(=O)N/N=C/c1ccc(OCCOc2ccc(Br)cc2)cc1	0.3	-2.2	-10	-5	-5	5.0	-14	x
